From PubChem
TAR Tat displ – HIV-1 TAR-Tat binding disruption; HIV-1 TAR RNA, Tat peptide displacement FRET; active compounds read high; z-score (no concentration beside the values); 100,000 tested, 0.6% active; AID 1259389;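 also: score is relative to mean and SD of negative controls; some compounds called inactive have numbers as strong as hits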
CDC25B-CDK2 inh – human CDC25B-CDK2/CyclinA binding inhibition. P30305+P24941. HTRF CDC25B-CDK2/CyclinA binding, anti-His/anti-Flag; active compounds read high. z-score (test concentration not listed). 94,000 tested, 0.72% active;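 also: score is relative to mean and SD of negative controls; strong numbers were not always called active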
Active calls of the source: *; · = no result given.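 The calls were made as follows: active = z-score from 3 up in half or more of its runs; inactive = the rest.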

SMILES | TAR Tat displ | CDC25B-CDK2 inh
O=C1CC(c2csc(-c3ccccc3)n2)C2(CCCCC2)O1 (stereo not drawn) | -0.37 | -0.14
Nc1c(C(=O)N2CCOCC2)sc2nc(N3CCCC3)c3c(c12)CCCC3 | -0.31 | -0.38
Cc1c(-c2nsc(NC(=O)c3ccco3)n2)nnn1-c1ccc(C(C)C)cc1 | -0.58 | -1.17
O=C(Nc1ccc2c(c1)OCO2)c1cc(-c2ccncc2)n[nH]1 | 4.68 | ·
Cc1csc2nc(CSc3nnc(NC(=O)c4ccccc4F)s3)cc(=O)n12 | 0.92 | ·
CCOC(=O)N1CCC(=NNc2ccc([N+](=O)[O-])cc2[N+](=O)[O-])CC1 | · | -1.68
Cc1ccccc1-c1noc2ncnc(NCCO)c12 | -0.39 | ·
Cc1ccc(CNC(=O)CCc2nnc3ccc(NCc4ccc5c(c4)OCO5)nn23)cc1 | 1.52 | ·
COc1ccccc1C1=NOC(COC(=O)c2ccc3ccccc3n2)C1 (stereo not drawn) | -1.81 | -1.14
CCCCNC(=O)Cn1c(=O)oc2cc(S(=O)(=O)N3CC(C)CC(C)C3)ccc21 (stereo not drawn) | 0.92 | 0.91
O=C(O)C1CCCN(S(=O)(=O)c2ccccc2Cl)C1 (stereo not drawn) | -0.82 | -1.65
O=c1c2c(-c3ccccc3)csc2ncn1Cc1c(F)cccc1Cl | 1.16 | -1.78
O=C(c1cnn(-c2ccccc2)c1-n1cccc1)N1CCCCC1 | 0.24 | 0.48
CC1CC(C)CN(CC2CCN(C(=O)Nc3ccc4c(c3)OCO4)CC2)C1 (stereo not drawn) | -0.15 | ·
C=CCn1c(SCC(=O)NCc2ccc3c(c2)OCO3)nc2sc3c(c2c1=O)CCCC3 | · | -2.48
O=C(O)C1C2C=CC(C2)C1C(=O)NCc1cccnc1 (stereo not drawn) | 1.59 | -2.37
CCOc1ccc(NS(=O)(=O)c2cc(-c3cnc(C4CC4)o3)ccc2C)cc1 | -1.46 | ·
COc1ccc(C(=O)CC(=O)O)c2c1C=CC(C)(C)O2 | 1.43 | ·
O=C(Nc1cc(F)ccc1F)c1ncoc1-c1ccco1 | 0.37 | ·
CCc1nc2c([nH]1)c(=O)n(C)c(=O)n2C | · | -0.63
Cc1nn(-c2ccc3nnc(C)n3n2)c2c1C(c1ccccc1OC(C)C)CC(=O)N2 (stereo not drawn) | 0.18 | ·
COC(=O)c1cc(S(=O)(=O)Nc2c(Cl)cc(OC)cc2OC)cn1C | 0.82 | ·
Cc1ccc(Cn2c(=O)c3ccc(C(=O)NC4CCCC4)cc3n3c(=O)[nH]nc23)cc1 | 3.41 | -0.39
CCN(CC)S(=O)(=O)c1cccc(S(=O)(=O)c2cccc(S(=O)(=O)N(CC)CC)c2)c1 | 2.06 | ·
CCCn1c2ccccc2c2cnn(CC(=O)N3CCC(c4ccccc4)C3)c(=O)c21 (stereo not drawn) | -0.91 | ·
Cc1ccc(N2C(=O)c3ccccc3S2(=O)=O)cc1C | 2.04 | -0.31
CCN(CC)S(=O)(=O)c1ccc2c(c1)oc(=O)n2CC(=O)NC1CCCCC1 | 2.42 | ·
COc1ccc(C(=O)CSc2nc(=O)n(C3CCS(=O)(=O)C3)c3c2CCC3)cc1OC (stereo not drawn) | -0.3 | -2.3
O=[N+]([O-])c1cc(Br)c(Oc2cncc(Cl)c2)cc1Oc1cncc(Cl)c1 | · | 0.04
CCc1ccc(NC(=O)CSc2nnc(CC)n3c2cc2oc(C)cc23)cc1 | -0.71 | ·
COc1ccc2c(c1)n([O-])c1c([n+]2=O)CCC1 | · | -2.21
CC(C)(C)c1nccc(-c2nn(-c3ccc(F)cc3)ccc2=O)n1 | · | 1.47
Cc1nc(-c2ccc(S(=O)(=O)NCCCN3CCOCC3)cc2)co1 | 1.06 | ·
CCC(C(=O)N1CCOCC1)n1nc(C)n2c(cc3sccc32)c1=O (stereo not drawn) | 1.34 | -1.15
CC1CCCCN1S(=O)(=O)c1ccc(CN2C(=O)c3cccnc3C2=O)s1 (stereo not drawn) | 0.02 | ·
Cc1cccc(NS(=O)(=O)C2CCS(=O)(=O)C2)c1 (stereo not drawn) | 0.26 | 0.85
O=S(=O)(c1cccc2nsnc12)N1CCC2(CC1)Nc1cc(F)ccc1-n1cccc12 | -1.04 | ·
COc1ccc(OCCn2c(C3CC(=O)N(c4ccc(F)cc4)C3)nc3ccccc32)cc1 (stereo not drawn) | -1.4 | -2.89
Cc1cn2c(=O)c(S(=O)(=O)Nc3ccccc3)c(C)nc2s1 | -1.43 | ·
O=C1CCSc2ccc(S(=O)(=O)N3CCN(Cc4ccc5c(c4)OCO5)CC3)cc2N1 | 1.33 | ·
Cc1oc2cc3oc(=O)c4ccccc4c3cc2c1-c1ccccc1 | · | -2.25
c1cc2c(cc1CNCCCN1CCOCC1)OCO2 | 0.87 | -0.94
CCOC(=O)c1cc2c(=O)oc3ccccc3c2n1C | 1.17 | -1.19
CN(C)c1ccnc2sc3c(=O)n(-c4ccccc4)cnc3c12 | · | -0.68
COc1ccc(Nc2nc(N3CC(C)CC(C)C3)nc3c2cnn3C)cc1Cl (stereo not drawn) | 1.92 | ·
COc1ccc(-c2nc(NCCN3CCOCC3)c3ccccc3n2)cc1 | 2.16 | ·
CC(C)N(Cc1nc(-c2ccc(Cl)cc2)no1)S(=O)(=O)c1ccc(F)cc1 | 1.62 | -1.88
CCCc1nc(N)ncc1C(=O)OCC | · | -2.71
O=C(c1ccccc1)c1cn(Cc2cccc(F)c2)c2cc3c(cc2c1=O)OCO3 | 0.35 | -0.46
CCOc1cc(C2C(C#N)=C(N)Oc3n[nH]c(C)c32)ccc1O (stereo not drawn) | -0.65 | 0.33
O=C(Nc1ccc2nc3n(c(=O)c2c1)CCCC3)C1CC1 | 1.16 | 0.18
Cc1cc(N2CCCC2)nc(N2CCN(C(=O)Nc3ccc(Cl)cc3)CC2)n1 | 1.42 | ·
Cc1cn2c(=O)cc(COc3ccc(C(C)(C)C)cc3)nc2s1 | -0.05 | -2.24
Cc1ccc(-c2noc3ncnc(NCCc4ccccc4)c23)cc1 | 1.58 | ·
CCOC(=O)c1c(N)n(-c2ccc(F)cc2)c2nc3ccccc3nc12 | · | -2.69
Cc1ccc(C(=O)CC2(O)C(=O)N(C)c3ccccc32)cc1 (stereo not drawn) | · | 0.2
CC1CCCC(NC(=O)Cn2ncn3nc(-c4ccco4)cc3c2=O)C1C (stereo not drawn) | -0.58 | -3.09
COCCCNC(=O)c1cnn2c3c(cnc12)CCCCCC3 | 0.96 | ·
O=C(NC1CCCC1)C1CCN(c2nc3ccc(Br)cc3s2)CC1 | 2.27 | -1.03
O=S(=O)(Cc1nnc(-c2cccc(F)c2)o1)c1ccccc1 | -0.21 | -1.68
The listing continues:
SMILES | TAR Tat displ | CDC25B-CDK2 inh
O=C(Cn1cnc2c(oc3ccccc32)c1=O)N1CCc2ccccc21 | · | -1.81
O=C1c2[nH]nc(-c3ccccc3O)c2C(c2ccccc2)N1CC1CCCO1 (stereo not drawn) | 0.23 | -1.75
Cc1cccc(N2C(=O)CSC23C(=O)Nc2ccccc23)c1 (stereo not drawn) | · | -2.67
Cn1c2ccccc2c2nnc(NCc3ccccc3)nc21 | 1.4 | 0.41
c1coc(-c2cn3ccc4ccccc4c3n2)c1 | -16.4 | -3.03
O=[N+]([O-])c1ccc(S(=O)(=O)c2ccccc2)cc1O | · | -1.49
Cc1cc([N+](=O)[O-])nn1CCCC(=O)Nc1sc2c(c1C(N)=O)CCCC2 | · | -0.09
CCCCCSc1nc2n(n1)C(c1ccc(C)cc1)C1=C(CCCC1=O)N2 (stereo not drawn) | -0.05 | -1.73
O=C(Nc1ccc(F)cc1)Nc1nnc(-c2ccccc2)o1 | 0.43 | -1.26
c1ccc(Nc2c(-c3ccccc3)nc3sccn23)cc1 | -1.17 | -1.38
Clc1ccc(CCNc2nc3ccccc3c3nncn23)cc1 | 0.43 | -2
O=C(/C=C/c1ccc(O)c(O)c1)O[C@@H]1C[C@](O)(C(=O)O)C[C@@H](O)[C@H]1O | 2.68 | ·
COc1ccc(-c2cccc(NS(=O)(=O)c3cc(C)c(OC)cc3C)c2)nn1 | 1.37 | ·
CCOC(=O)N1CCC(Nc2c(N3CCC(C(N)=O)CC3)c(=O)c2=O)CC1 | 0.81 | -1.42
O=C(CCN1CCCCC1)c1ccc(-c2ccccc2)cc1 | · | -2.91
CCc1nnc2c(Nc3cc(Cl)ccc3OC)nc3ccccc3n12 | 0.08 | ·
Cc1ccccc1CSc1ccc2nnc(CCNS(=O)(=O)c3ccccc3)n2n1 | 2.66 | ·
CC(=O)C1C(c2cccnc2)NC(=O)NC1(O)C(F)(F)F (stereo not drawn) | · | -1.59
CC(C)N1C(=O)CN(C2CCCCCC2)C(=O)C1c1ccccc1F (stereo not drawn) | · | 0.96
Brc1[nH]nc2ncnc(N3CCN(c4ncccn4)CC3)c12 | 1.56 | 0.98

Structural class, the entries above with bromine
SMILES | TAR Tat displ | CDC25B-CDK2 inh
O=[N+]([O-])c1cc(Br)c(Oc2cncc(Cl)c2)cc1Oc1cncc(Cl)c1 | · | 0.04
O=C(NC1CCCC1)C1CCN(c2nc3ccc(Br)cc3s2)CC1 | 2.27 | -1.03
Brc1[nH]nc2ncnc(N3CCN(c4ncccn4)CC3)c12 | 1.56 | 0.98

The list goes on:
SMILES | TAR Tat displ | CDC25B-CDK2 inh
CC(CCC(=O)Nc1nccs1)C(=O)O (stereo not drawn) | 0.34 | 2.03
COc1cc(NC(=O)C2CCCN2S(=O)(=O)c2ccc3c(c2)CC(C)N3C(C)=O)cc(OC)c1 (stereo not drawn) | 1.01 | ·
O=C(CSCc1cc(=O)n2ccsc2n1)Nc1ccccc1 | -0.67 | ·
CCOC(=O)c1[nH]c(C)c(C(=O)Nc2ccc(Br)cc2F)c1C | · | -1.06
CCOC(=O)c1nn(-c2ccc(Cl)cc2)c(=O)c(C#N)c1C | 0.3 | -1.22
CC(C)(C)Sc1nsc(N)n1 | 2.13 | ·
Fc1ccc(-c2nc3nonc3nc2-c2ccc(F)cc2)cc1 | · | 1.4
O=C(O)C1CSC(c2cccc(O)c2)N1 (stereo not drawn) | 1.73 | ·
CCc1ccc(CNCCCSc2nnnn2-c2ccccc2)cc1 | 1.23 | -0.48
CN(C)c1ccc(C2Nc3ccccc3-c3nc4ccccc4n32)cc1 (stereo not drawn) | · | 7.47
CSc1nnc(SCc2nc(-c3ccc(Cl)cc3)cs2)s1 | · | -0.56
CC1c2cccn2CCN1C(=O)Nc1ccc(Br)cc1F (stereo not drawn) | -4.14 | ·
COc1ccc(C2C(C(=O)OC(C)C)=C(C)NC3=C2C(=O)CCC3)c(OC)c1 (stereo not drawn) | 0.5 | 0.65
COc1ccc(-c2cc(C)no2)cc1S(=O)(=O)NCCc1ccco1 | 1.03 | ·
c1ccc2c(-c3ccncc3)c[nH]c2c1 | 0.71 | ·
CCOc1ccc(C2Nc3ccc4ncccc4c3C3=C2C(=O)CCC3)cc1 (stereo not drawn) | 0.05 | -0.32
Cc1cc(C)n(Cc2c(C(=O)NC3CCCc4ccccc43)noc2C)n1 (stereo not drawn) | 0.43 | ·
Cn1c(=O)c2c(nc(Oc3ccccc3)n2Cc2ccc(Br)cc2)n(C)c1=O | -0.34 | 0.07
O=S(=O)(Nc1cccc(-c2ccc(N3CCCCC3)nn2)c1)c1cccnc1 | 1.25 | ·
CC1=C(C(=O)Nc2cc(C(=O)NCc3ccco3)ccc2C)SCCO1 | 1.62 | ·
CCN1CCSc2ccc(C(=O)NCc3ccc4c(c3)OCO4)cc21 | 0.71 | -0.2
CCc1nnc2sc(-c3cnccn3)nn12 | 0.55 | -0.44
O=C(CSc1ncnc2c1oc1ccccc12)N1CCCCC1 | · | -0.78
Cc1ccc2oc3c(c(=O)c2c1)C(c1ccccc1)N(CCCN(C)C)C3=O (stereo not drawn) | 0.62 | ·
C1=C(c2ccccc2)Nc2ncnn2C1c1cccs1 (stereo not drawn) | -5.6 | 2.86
CCN1C(=O)C(Cc2nc3ccccc3c(=O)n2CCc2ccccc2)c2ccccc21 (stereo not drawn) | 0.33 | 0.76
COC(=O)c1cc(OC)c(OC)cc1NC(=O)C1=Cc2cc(OC)ccc2OC=C1 | 0.13 | -1.79
CSc1nc2n(n1)C(c1ccc(F)cc1)C1=C(CCCC1=O)N2 (stereo not drawn) | 1.61 | -0.43
CC(=O)NC1=NN(C(C)=O)C(c2ccc(OC(=O)c3ccc(C)cc3)c(Cl)c2)S1 (stereo not drawn) | 1.98 | -2.06
CC(=O)N1CCc2cc(Br)cc(S(=O)(=O)NC3CCCc4ccccc43)c21 (stereo not drawn) | · | -0.61

Of the compounds above, 14 contain an aryl methoxy group:
SMILES | TAR Tat displ | CDC25B-CDK2 inh
COc1ccccc1C1=NOC(COC(=O)c2ccc3ccccc3n2)C1 (stereo not drawn) | -1.81 | -1.14
COc1ccc(C(=O)CC(=O)O)c2c1C=CC(C)(C)O2 | 1.43 | ·
COC(=O)c1cc(S(=O)(=O)Nc2c(Cl)cc(OC)cc2OC)cn1C | 0.82 | ·
COc1ccc(C(=O)CSc2nc(=O)n(C3CCS(=O)(=O)C3)c3c2CCC3)cc1OC (stereo not drawn) | -0.3 | -2.3
COc1ccc2c(c1)n([O-])c1c([n+]2=O)CCC1 | · | -2.21
COc1ccc(OCCn2c(C3CC(=O)N(c4ccc(F)cc4)C3)nc3ccccc32)cc1 (stereo not drawn) | -1.4 | -2.89
COc1ccc(Nc2nc(N3CC(C)CC(C)C3)nc3c2cnn3C)cc1Cl (stereo not drawn) | 1.92 | ·
COc1ccc(-c2nc(NCCN3CCOCC3)c3ccccc3n2)cc1 | 2.16 | ·
COc1ccc(-c2cccc(NS(=O)(=O)c3cc(C)c(OC)cc3C)c2)nn1 | 1.37 | ·
CCc1nnc2c(Nc3cc(Cl)ccc3OC)nc3ccccc3n12 | 0.08 | ·
COc1cc(NC(=O)C2CCCN2S(=O)(=O)c2ccc3c(c2)CC(C)N3C(C)=O)cc(OC)c1 (stereo not drawn) | 1.01 | ·
COc1ccc(C2C(C(=O)OC(C)C)=C(C)NC3=C2C(=O)CCC3)c(OC)c1 (stereo not drawn) | 0.5 | 0.65
COc1ccc(-c2cc(C)no2)cc1S(=O)(=O)NCCc1ccco1 | 1.03 | ·
COC(=O)c1cc(OC)c(OC)cc1NC(=O)C1=Cc2cc(OC)ccc2OC=C1 | 0.13 | -1.79
